SARS PLpro yeast – inhibitors of SARS-CoV papain-like protease in yeast | hit rate 0.19% among 330,000 | AID 485353 | S. cerevisiae expressing SARS-CoV PLpro, growth rescue; control for the full effect not named in the record | Potency, µM (doses to about 32.9 µM), inactives show at the top dose activity, positive = growth rescue; active means well fitted rising curve with a large enough effect; inconclusive means small, poorly fitted or top-dose-only effect; inactive means no such curve, though single readings can be large or run the other way; further: 0% is about no effect; nearly all actives have a fitted effect of over 55% in size; growth read by luminescence after 48 h
Cruzain Triton – blocks cruzain activity in presence of Triton detergent; P25779; purified cruzain, Z-FR-AMC fluorescence, 0.01% Triton; Potency, µM, for the others: max response, negative = inhibition, actives largely listed as inhibitors; hit rate 0.43% among 200,000;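 further: plate controls were neutral wells for no effect and buffer without enzyme for full effect; nearly all actives have a fitted effect of over 40% in size; top concentration of the series not given in the record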
Target sequence (P25779 123-467 limits assumed): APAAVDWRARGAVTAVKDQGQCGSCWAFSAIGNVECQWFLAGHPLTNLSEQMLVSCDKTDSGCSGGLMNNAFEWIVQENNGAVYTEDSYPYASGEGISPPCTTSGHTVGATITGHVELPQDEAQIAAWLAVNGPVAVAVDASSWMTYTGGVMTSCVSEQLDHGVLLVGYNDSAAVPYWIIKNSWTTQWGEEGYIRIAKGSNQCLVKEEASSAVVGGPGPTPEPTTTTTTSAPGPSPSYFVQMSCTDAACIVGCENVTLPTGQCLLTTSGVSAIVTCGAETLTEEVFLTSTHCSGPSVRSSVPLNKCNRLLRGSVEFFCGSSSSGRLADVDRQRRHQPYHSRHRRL
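Sodium acetate buffer (100 mM, pH 5.5) containing 5 mM DTT and 0.01% Triton X-100 hosted 1.5 nM cruzain and test compound for 15 min at room temperature. Cleavage of 2 uM Z-FR-AMC was then tracked by fluorescence.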
RE007 growth inh – less growth of the S. pombe RE007 Vpr strain. S. pombe RE007 Vpr strain, BacTiter-Glo ATP luminescence, 24 h; control for the full effect not named in the record. Potency, µM (series often up to 92.2 µM), inactives show top-dose activity change, negative = less growth. hit rate 0.21% among 360,000. AID 651644; active = well fitted falling curve with a large enough effect; inconclusive = small, poorly fitted or top-dose-only effect; inactive = no such curve, though single readings can be large or run the other way;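 further: on the % scale 0 is the no-effect control and ±100 the full control effect; nearly all actives have a fitted effect of over 50% in size; the assay follows cell death caused by Vpr and the record does not say whether a fall means rescue or toxicity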
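Fission yeast RE007 carrying one integrated HIV-1 vpr copy, seeded at OD 0.01 in PMG+AL medium with 23 nL pinned compound. Grown 24 h at 30 degrees; viability read by BacTiter-Glo luminescence after 5 min.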
StopGo reporter – FMDV 2A StopGo reporter, luciferase signal; hit rate 1.2% among 410,000; Potency, µM (doses to about 57.9 µM), for inactives: at the highest dose signal change, negative = less light; human cells with a luciferase reporter of 2A StopGo recoding; control for the full effect not named in the record; active = well fitted falling curve with a large enough effect; inconclusive = small, poorly fitted or top-dose-only effect; inactive = no such curve, though single readings can be large or run the other way; tested in HEK293T cells; further: on the % scale 0 is the no-effect control and ±100 the full control effect; nearly all actives have a fitted effect of over 45% in size; luciferase light after 4 h
Cruzain inh noDet – inhibitors of Trypanosoma cruzi cruzain without detergent; P25779; purified cruzain, Z-FR-AMC fluorescence, no detergent; Potency, µM, for inactives: max response, negative = inhibition, actives largely listed as inhibitors; hit rate 2.3% among 200,000;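 further: plate controls were enzyme without inhibitor for no effect and buffer without enzyme for full effect; nearly all actives have a fitted effect of over 40% in size; top concentration of the series not given in the record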
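Purified cruzain at 1.5 nM, pre-incubated 15 min with compound at room temperature in 100 mM sodium acetate pH 5.5, 5 mM DTT, 0.00005% Triton X-100. Reaction started with 2 uM Z-FR-AMC; AMC fluorescence increase over 60 s gives rate.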
NS1 function inh – blocks influenza NS1 protein function | Potency, µM (series often up to 46.1 µM), for inactives: top-dose activity, positive = more growth | AID 2326 | S. cerevisiae slowed by influenza A NS1, growth recovery by OD600 | hit rate 0.4% among 270,000; active means well fitted rising curve with a large enough effect; inconclusive means small, poorly fitted or top-dose-only effect; inactive means no such curve, though single readings can be large or run the other way; further: nearly all actives have a fitted effect of over 50% in size
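S. cerevisiae expressing influenza A NS1, grown in glucose, washed, then diluted 1:100 into pH 6.0 -URA galactose medium with 23 nl compound. Growth recovery read as OD600; NS1-free strain serves as control.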
Lassa entry inh – blocks Lassa virus binding to or entry into cells; AID 540256; Lassa virus pseudotype entry inhibition, cell reporter; control for the full effect not named in the record; hit rate 1.2% among 300,000; Potency, µM (titrated, usually from 37.9 µM), for inactives: top-dose activity change, negative = inhibition, most hits filed as inhibitors; active means well fitted inhibition curve with a large enough effect; inconclusive means small, poorly fitted or top-dose-only effect, or effect the other way; inactive means flat fitted curve, though single readings scatter; tested in HEK293 cells; further: on the % scale 0 is the no-effect control and ±100 the full control effect; nearly all actives have a fitted effect of over 50% in size; luciferase read-out
MARV entry inh – inhibitors of Marburg virus binding or cell entry | Marburg virus pseudotyped entry inhibition, cell reporter; control for the full effect not named in the record; about a third of the inactives were read at about 46 µM | Potency, µM (series often up to 37.8 µM), for inactives: at the highest dose activity change, negative = inhibition, most hits filed as inhibitors | hit rate 1.8% among 300,000 | AID 540276; active = well fitted inhibition curve with a large enough effect; inconclusive = small, poorly fitted or top-dose-only effect, or effect the other way; inactive = flat fitted curve, though single readings scatter; tested in HEK293 cells; about a fifth of its hits are not listed in these tables; further: on the % scale 0 is the no-effect control and ±100 the full control effect; luciferase read-out
Starred values were filed as active, the others as inactive; u = inconclusive; x = not tested or not shown; [ ] = dose if it differs, or a comment. Unless noted, the call rests on the fitted dose curve; in most records, active means well fitted curve in the direction sought with a large enough effect; inconclusive means small, poorly fitted or top-dose-only effect, or another doubt; inactive means no such curve, though single readings can be large; an effect the other way counts as inactive or inconclusive. Potency means the concentration at half of the fitted maximal effect.

SMILES	SARS PLpro yeast	Cruzain Triton	RE007 growth inh	StopGo reporter	Cruzain inh noDet	NS1 function inh	Lassa entry inh	MARV entry inh
Cc1cc(NC(=O)Nc2nnc(N(C)C3CCCCC3)s2)ccc1Br	x	-6.8%	x	-5%	u	x	-28%[46.1 µM]	u
CN(CC(=O)Nc1cccc(F)c1)C(=O)CCCN1C(=O)c2cccc3cccc(c23)C1=O	-4%	x	2%	-3%	x	x	4%	2%
Cc1ccc(S(=O)(=O)NCc2ccncc2)c(C)c1C	1%	x	1%	-10%	x	5%	-14%[46.1 µM]	u
COc1cc(/C=C(/C#N)c2nc(-c3cc4ccccc4oc3=O)cs2)ccc1O	x	-0.3%	x	0%	12%	x	u	2%
CCc1ccccc1N1C(=O)CC(N2CCc3ccccc32)C1=O (stereo not drawn)	-1%	x	-10%	-9%	x	2%	-5%	u
Cc1ccc(-n2nnnc2CSc2nnc(-c3ccc(O)cc3)o2)cc1	-2%	-3.1%	8%	-19%	-10%	12%	u	36%
COc1ccc(CC(=O)OCC(=O)c2ccc(F)cc2)cc1	8%	x	0%	44%[activator]	x	x	-6%	0%
CCOC(=O)c1ccc(N2CN(CC)CNC2=S)cc1	10µM*	0.2%	4%	9%	-6%	5%	-14%	2%
CCOC(=O)CSCC(=O)Nc1ccc(S(=O)(=O)N2CCCCC2)cc1	6%	4.8%	14%	-1%	0%	1%	0%	u
COc1ccccc1N1CCN(C(=O)c2cc(C)oc2C)CC1	2%	x	-19%	-17%	x	x	u	-11%[46.1 µM]
COc1ccc(-n2ccsc2=S)cc1	0%	-1.2%	0%	x	-6%	-7%	-1%	u
COCCCNC(=S)Nc1ccc2c(c1)OCCO2	10%	-0.1%	14%	53%[activator]	-12%	3%	11%	18%
CC(=O)c1sc(=S)n(-c2ccccc2)c1C	1%	x	1%	30%[activator]	x	-4%	-10%[46.1 µM]	-4%[46.1 µM]
COc1ccccc1CNC(=O)c1cc(S(=O)(=O)N2CCCCC2)c[nH]1	-1%	x	-1%	0%	x	-15%	x	x
COc1ccc(OC)c(N(CC(=O)NCCc2ccc(OC)c(OC)c2)S(=O)(=O)c2ccccc2)c1	1%	x	20%	-19%	x	-3%	x	-7%[46.1 µM]
COc1ccc(OC)c(S(=O)(=O)N2CCN(C)CC2)c1	3%	2.9%	9%	1%	1%	0%	2%	12%
CCN1CCN(C(=O)C2CC(c3ccc(F)cc3)=NO2)CC1 (stereo not drawn)	0%	-0.8%	3%	0%	-4%	5%	x	0%
CN1CCN(CCC(=O)N/N=C/c2cc([N+](=O)[O-])ccc2OC(F)F)CC1	3%	x	-24%	-9%	x	x	9%[46.1 µM]	-12%
Cc1nnc(SCc2cc(=O)[nH]c(Nc3nc(C)c4cc(C)c(C)cc4n3)n2)s1	1%	x	10%	3%	x	2%	-7%[46.1 µM]	-10%[46.1 µM]
Cc1ccc2c(c1)c1c(c(=O)n(-c3cccc(Cl)c3)c(=O)n1C)n2C	x	-1.2%	x	-3%	7%	x	3%[46.1 µM]	x
CCN(CC)CCNC(=O)c1cc(S(=O)(=O)N2CCc3ccccc32)cn1C	3%	x	0%	-22%	x	0%	x	x
CC(C)NC(=O)c1ccc2c3n(nc2c1)-c1ccc(Cl)cc1CO3	-2%	x	-1%	14%	x	1%	x	x
CCOC(=O)c1cccc(NS(=O)(=O)c2c(C)[nH]c(C)c2C(=O)N2CCCC2)c1	6%	x	-2%	1%	x	-4%	x	x
CCOc1ccc(C(=O)OCC(=O)Nc2cc(C)on2)cc1OCC	6%	5.7%	10%	23%	29%	3%	3%	14%
O=C(Nc1ccc(Cl)cc1)c1cc(Br)ccc1OCC(=O)N1CCOCC1	u	x	-12%	-3%	x	8%	2%	-16%

Going on with the list.
SMILES	SARS PLpro yeast	Cruzain Triton	RE007 growth inh	StopGo reporter	Cruzain inh noDet	NS1 function inh	Lassa entry inh	MARV entry inh
Cc1ccc(C)c(SCC(=O)Nc2nnc(-c3ccccc3)o2)c1	1%	4.5%	-2%	12%	-9%	-9%	0%	-3%
CCOC(=O)c1ccc2nc(NC(=O)c3cccs3)sc2c1	-7%	-5.2%	-10%	16%	-2%	4%	u	4.5µM*
Cc1ccc(S(=O)(=O)CCC(=O)NCc2ccccc2F)cc1	6%	x	-2%	-8%	x	x	u	4%
COC(=O)c1cc(OC)c(OC)cc1N1C(=O)CC(C)(C)CC1=O	-1%	x	11%	-9%	x	-1%	14%	2%
O=C1c2ccccc2CN1Cc1ccccc1	3%	x	-12%	22%	x	-4%	-3%[46.1 µM]	u
O=C(Nc1ccccc1)c1ccc(OC(=O)c2cc3ccccc3o2)cc1	0%	8.0%	16%	55%[activator]	13µM*	3%	19%	5%
COCCCNC(=O)Cc1ccc(-n2c(C)nc3cccnc32)cc1	-1%	x	-2%	-9%	x	8%	x	x
CCN1CCN(CCCNC(=O)c2ccc3c(c2)NC(=O)/C(=C\c2cccc(C)c2)S3)CC1	15%	x	15%	-23%	x	-8%	x	x
O=C(Oc1ccc(Br)cc1C(=S)N1CCCC1)c1ccccc1Cl	-4%	-0.1%	-2%	20%	0%	u	u	-13%[46.1 µM]
CCC(=O)NC(NCC1CCCO1)C(Cl)(Cl)Cl (stereo not drawn)	0%	4.0%	-11%	-21%	11%	-5%	-17%	1%
Cc1ccc(-n2ncc(C(=O)Nc3ccc4c(c3)OCO4)c2C2CCN(C(=O)OC(C)(C)C)CC2)c(C)c1	x	-11%	x	16%	x	x	u	x
COc1ccc(NC(=S)N/N=C/c2ccc(F)cc2)cc1OC	15%	x	1%	-5%	x	x	-25%	-9%[14.2 µM]
O=S(=O)(NC1CC2CCC1C2)c1ccc(Br)s1 (stereo not drawn)	-27%	-2.5%	0%	9%	u	-130%	6%	u
Cc1ccc2c(c1)-c1c(ssc1=S)C(C)(C)N2C(=O)CSc1nncn1C	2%	-7.2%	-18%	u	u	15%	u	u
CCc1cc(=O)oc2cc(OC3CCCCC3=O)ccc12 (stereo not drawn)	4%	x	0%	10%	x	2%	10%[46.1 µM]	2%[46.1 µM]
O=C(NCc1ccco1)c1cnn2c1NC(c1ccc(Br)cc1)CC2C(F)(F)F (stereo not drawn)	-15%	-5.7%	-27%	-29%	14%	-4%	-2%	u
Cc1ccccc1Cn1c2ccccc2c2cnn(CC(=O)NCCc3ccccc3)c(=O)c21	x	5.4%	x	8%	12%	x	18%[46.1 µM]	u
O=C(CSCc1cc(=O)c2cc(F)ccc2[nH]1)Nc1ccccc1Cl	x	1.9%	x	-23%	-5%	x	-15%[46.1 µM]	x
Cc1ccc(NC(=O)c2cnc(SCC(=O)N3CCCc4ccccc43)n(C)c2=O)cc1	x	-1.7%	x	30%[activator]	-4%	x	25%[46.1 µM]	x
COc1ccc(-c2cc3ccc(OCC(C)=O)cc3oc2=O)cc1OC	-3%	x	-11%	5%	x	1%	x	x
Cn1c(=O)c2cc(S(=O)(=O)NC(C(=O)NCc3cccnc3)c3ccccc3)ccc2n(C)c1=O (stereo not drawn)	-2%	4.4%	-4%	-11%	-6%	-13%	x	x
CNS(=O)(=O)c1cccc(C(=O)OCC(=O)c2cc3ccccc3o2)c1	2%	x	-11%	16%	x	x	-1%	27%
CSc1cnc2c(=O)[nH]c(=O)n(C)c2n1	-11%	-9.5%	16%	-22%	-6%	6%	-15%	12%
Nc1c(C(=O)c2ccc(F)cc2)sc(Nc2ccccc2F)c1S(=O)(=O)c1ccc(Br)cc1	x	-1.1%	x	-18%	-27%	x	-46%[46.1 µM]	x
N#CCCN(Cc1cccnc1)C(=S)NCc1ccco1	-1%	x	4%	-3%	x	14%	x	x

New compounds follow.
SMILES	SARS PLpro yeast	Cruzain Triton	RE007 growth inh	StopGo reporter	Cruzain inh noDet	NS1 function inh	Lassa entry inh	MARV entry inh
COc1c(N2CCN(C(=S)Nc3ccccc3F)C(C)C2)c(F)cc2c(=O)c(C(=O)O)cn(C3CC3)c12 (stereo not drawn)	1%	x	-1%	-27%	x	0%	1%[46.1 µM]	u
CN(Cc1ccccc1)S(=O)(=O)c1ccc(S(=O)(=O)N(Cc2ccc(F)cc2)C2CCCC2)cc1	5%	-1.3%	-13%	u	u	8%	u	-26%
O=C(C[n+]1ccc(C(=O)NCc2ccccc2)cc1)c1ccc(Cl)cc1	2%	x	2%	-15%	x	10%	-3%	-15%
N#Cc1ccc(-c2csc(NC(=O)C3CC3)n2)cc1	3%	1.9%	18%	12%	-24%	-3%	x	x
COc1ccc(N2CCN(c3oc(-c4ccc(COc5cccc(C)c5)o4)nc3C#N)CC2)cc1	x	-2.3%	x	-23%	u	x	-8%[46.1 µM]	-10%[46.1 µM]
CC(=O)Nc1ccc(NC(=O)C(=O)NCC(c2ccco2)N2CCc3ccccc3C2)cc1 (stereo not drawn)	-5%	x	4%	-12%	x	x	-30%	u
N#CC(C#N)=Cc1cc2ccccc2nc1N1CCOCC1	-22%	-12%	-10%	-2%	-1%	4%	3%	u
Cc1ccc(NC(=O)C/C(N)=N/O)cc1Cl	1%	x	7%	3%	x	5%	x	x
CCOC(=O)CNC(=O)CSc1ncnc2c1cnn2Cc1ccccc1	1%	0.7%	5%	u	6%	-17%	2%	u
CCOc1ccc(NC(=O)CCN2C(=O)c3cccc([N+](=O)[O-])c3C2=O)cc1	1%	x	9%	-6%	x	-1%	x	x

3 compounds already listed, arranged by formula weight, ascending.
SMILES	SARS PLpro yeast	Cruzain Triton	RE007 growth inh	StopGo reporter	Cruzain inh noDet	NS1 function inh	Lassa entry inh	MARV entry inh
COCCCNC(=S)Nc1ccc2c(c1)OCCO2	10%	-0.1%	14%	53%[activator]	-12%	3%	11%	18%
COc1ccc(CC(=O)OCC(=O)c2ccc(F)cc2)cc1	8%	x	0%	44%[activator]	x	x	-6%	0%
Cn1c(=O)c2cc(S(=O)(=O)NC(C(=O)NCc3cccnc3)c3ccccc3)ccc2n(C)c1=O (stereo not drawn)	-2%	4.4%	-4%	-11%	-6%	-13%	x	x
